Screening data: PubChem BioAssay, Fisher Drug Discovery Resource Center
NPYLR7 agonist = activates Aedes aegypti NPYLR7 receptor | HEK293T NPYLR7/Galpha15, GCaMP6s calcium fluorescence | activation, % at 10 µM | hit rate 0.15% among 270,000 | AID 1259423; in the data active = activation above about 40%;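 also: 0% = vehicle and 100% = reference agonist at the receptor; some compounds past the cut are filed as inactive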
NPYLR7 agonist max-min = further read-out of NPYLR7 agonist, marked with its call; activation, %; measured here: Max-Min RFU normalised activation; some inactives read as strong as hits;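 span of the calcium signal over five minutes; 0% = vehicle and 100% = native peptide agonist; compound fluorescence can raise it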
Active calls of the source: *; & = joins results of further samples. A portion of the library; rates above refer to the full screens.

SMILES | NPYLR7 agonist | NPYLR7 agonist max-min
Cc1cccc(-c2cc(N)n(-c3ccc(C(=O)NC4CCCCC4)cc3)n2)c1 | -7 | -14
CCCCc1nc2cc(C(=O)NCCc3cnccn3)ccc2o1 | 22 | 12
CC(C)CC(NC(=O)N(C)Cc1ncnn1C)c1ccc(Cl)cc1 (configuration not stated) | 0 | -10
CCN(CC)C(=O)c1cc(-c2ccccc2)nc2c(C)cccc12 | 4 | -1
O=C(NC(C(=O)N1CCCC1)C1CCN(C(=O)C2CCCC2)CC1)C1CC1 (configuration not stated) | 16 | 18
Cn1ncc2c(NCCO)nc(N3CCN(CCO)CC3)nc21 | 2 | -1
CC1(C(=O)Nc2cccc(C#N)c2)CCN1C(=O)CCc1ccccc1 (configuration not stated) | 9 | 7
Cc1cccc2nc(C(=O)N3CCNCC3C(=O)NC3CC3)cn12 (configuration not stated) | 1 | -2
CC1CCCCN1Cc1nnc(C(=O)Nc2ccc(Cl)cc2)s1 (configuration not stated) | 2 | 1
COc1c(C)cc(-c2cncc(C(N)=O)c2)cc1C | 0 | -5
COc1cc(C)ccc1S(=O)(=O)NC(=O)C1(C)CCN1C(=O)Cc1ccc(Cl)cc1Cl (configuration not stated) | 4 | 2
CC(c1cccc(-c2nccc(N3CCC(O)CC3)n2)c1)N1CCCC1 (configuration not stated) | 4 | 3
C=CCn1cc(I)c(=O)n(CC=C)c1=O | 8 | 3
COCC(=O)Nc1ccc(-c2ccc(-c3ccn[nH]3)cc2)cc1 | 3 | 2
C=CCn1c2c(c(=O)[nH]c1=O)C(c1ccc(F)cc1)C1C(=O)OCC1=N2 (configuration not stated) | 2 | 10
O=C(CNc1cccc2c1CCCC2)Nc1cccc(S(=O)(=O)N2CCOCC2)c1 | 7&1 | 4&-1
COCc1nc(C)nc(N2CCN(C(=O)c3ccco3)CC2)c1Cc1cccc(Cl)c1 | 4 | 7
c1cnc(Oc2ccc(CNC3CCCN(c4nc5ccccc5s4)C3)cc2)nc1 (configuration not stated) | 18 | 6
COCCNC(=O)CCN(Cc1ccccc1)c1nc(C2CC2)nc2cc(Cl)ccc12 | 11 | 12
Cc1cc(=O)[nH]c(SC/C=C/CSc2nc(C)cc(=O)[nH]2)n1 | 1 | -4
CCc1ccc(N2CCN(C(=O)C3CCCC3)C(C)C2=O)cc1 (configuration not stated) | -12 | -6
C=CCc1cccc2cc(C(=O)Nc3ccc(Cl)c(Cl)c3)c(=O)oc12 | -1 | -9
C[C@H](NC(=O)CN1Cc2ccc(Nc3cccc(F)c3)nc2C1=O)c1ccccc1 | 3 | -1
CC1CCCCN1C(=O)c1cc2c(=O)n3ccccc3nc2n1C (configuration not stated) | 0 | -2
COc1ccccc1-c1nccc2[nH]nc(-c3cccc(C(F)(F)F)c3)c12 | 7 | 5
CCC(NCc1cc(=O)n2nc(C)sc2n1)C12CC3CC(CC(C3)C1)C2 (configuration not stated) | -2 | 18
Cc1ccc(C2(O)CCN(C(=O)C[C@@H]3C[C@@H]4C=C[C@H]3C4)CC2)nc1 | -1 | 0
Fc1ccc2nc(C3CCN(Cc4nc(CC5CC5)no4)CC3)[nH]c2c1 | 16 | 2
CCN1CCN(C(=O)c2ccc(CSc3nnc(-c4cccs4)n3CC)cc2)CC1 | 6 | 15
CC(C)C(=O)Nc1nnc(-c2ccco2)s1 | 0 | 0
NC(=O)C(CNC(=O)Nc1ccccn1)Cc1ccc(F)cc1 (configuration not stated) | 5 | 3
Cc1nc(-c2ccccn2)nc(NC2CCN(CC(F)F)CC2)c1C | 17 | 7
CC(C)c1cc(C(=O)N(C)Cc2nccn2C(F)F)c(O)c(C(C)C)c1 | 0 | -3
Cc1cccnc1-n1nc(-c2ccccc2)nc1Cn1cc(C)c(=O)[nH]c1=O | -3 | -4
CC(=O)Oc1ccc(C2C(C(=O)OCCc3ccccc3)=C(C)NC3=C2C(=O)CCC3)cc1 (configuration not stated) | 0 | -4
COCCNC(=O)c1ccc(OC2CCN(Cc3ccc(C)s3)CC2)c(Cl)c1 | 6 | 3
COc1c(NC(=O)Cc2ccc(Br)cc2)c(C)nn1C | -2 | -1
Cc1sc2nc(SCCO)n(C3CCCC3)c(=O)c2c1C | -2 | -4
Nc1cc(-c2ccc(-c3ccn[nH]3)cc2)ccn1 | 12 | 5
NC(=O)N1CCN(C(=O)c2ccco2)CC1 | 8 | 6
COc1cccc(NC(=O)Cc2csc(C(C)C)n2)c1 | 3 | 2
O=C(NCc1nnc(SCc2ccc(F)cc2)n1-c1ccc(Cl)cc1Cl)NC12CC3CC(CC(C3)C1)C2 | 20 | 22
CCc1ccccc1NCN1C(=O)c2ccccc2C1=O | -2 | -4
COc1ccc(-n2ccnc(SCc3ccc(F)cc3)c2=O)cc1OC | -1 | -1
COC(=O)CCCCC(=O)Nc1ccc(-c2onc3c2CCc2ccccc2-3)cc1 | 2 | -6
Cc1cc(C2(c3cc(C)c(O)c4ncccc34)OC(=O)c3ccccc32)c2cccnc2c1O | 9 | 2
CCc1[nH]c2ccc(CNC(=O)Cc3ccc4c(c3)NC(=O)CO4)cc2c1C | 0 | -1
C=CCN(CC(=O)N1CCc2sccc2C1COc1cccc(OC)c1)C(=O)c1cccc(F)c1 (configuration not stated) | 2 | 16
COc1cccc(CN(Cc2ccc(C(O)(c3cccs3)c3cccs3)o2)CC2CCCO2)c1 (configuration not stated) | -2 | 19
CC(C)NC(=O)c1ccc(OCc2cccs2)cc1 | -1 | -2
COc1ccc(N2C(=O)CSC2c2cccc(NC(=O)c3ccc(C(F)(F)F)cc3)c2)cc1 (configuration not stated) | 12 | 11
Cn1c(NCc2ccccc2COc2ccccc2)c(C#N)c(=O)n(C)c1=O | 3 | 0
Cc1c(C)n2c3c(=O)n(Cc4ccccc4F)c(=O)n(C)c3nc2n1CCCO | -1 | 24
Cc1oc(-c2ccccc2NS(C)(=O)=O)nc1CN(C)Cc1cccs1 | 21 | 14
CN(C)c1ccc(C=Nc2ccc(F)cc2)cc1 | 6 | 8
COc1cc(OC)cc(-c2onc(C)c2C(=O)NCCCSC)c1 | 18 | 29
Cc1nonc1OCCNC(=O)CCN1CCCCCCC1 | 6 | 4
COCC(=O)Nc1cc(-c2ccccc2)nn1-c1ccc(C#N)cc1 | 14 | 11
COc1ccc(-c2nc3ccc(C)cn3c2NC(=O)CCC2CCCC2)cc1OC | -4 | -3
CCc1ccccc1N=C1SCC(=O)C1C(=O)OC (configuration not stated) | -5 | 2

Another view of some results above.
Compound,NPYLR7 agonist,NPYLR7 agonist max-min
NC(=O)C(CNC(=O)Nc1ccccn1)Cc1ccc(F)cc1 (configuration not stated),5,3
Cc1nc(-c2ccccn2)nc(NC2CCN(CC(F)F)CC2)c1C,17,7
CC(C)c1cc(C(=O)N(C)Cc2nccn2C(F)F)c(O)c(C(C)C)c1,0,-3
Cc1cccnc1-n1nc(-c2ccccc2)nc1Cn1cc(C)c(=O)[nH]c1=O,-3,-4
CC(=O)Oc1ccc(C2C(C(=O)OCCc3ccccc3)=C(C)NC3=C2C(=O)CCC3)cc1 (configuration not stated),0,-4
COCCNC(=O)c1ccc(OC2CCN(Cc3ccc(C)s3)CC2)c(Cl)c1,6,3
COc1c(NC(=O)Cc2ccc(Br)cc2)c(C)nn1C,-2,-1
Cc1sc2nc(SCCO)n(C3CCCC3)c(=O)c2c1C,-2,-4
Nc1cc(-c2ccc(-c3ccn[nH]3)cc2)ccn1,12,5
NC(=O)N1CCN(C(=O)c2ccco2)CC1,8,6
COc1cccc(NC(=O)Cc2csc(C(C)C)n2)c1,3,2
O=C(NCc1nnc(SCc2ccc(F)cc2)n1-c1ccc(Cl)cc1Cl)NC12CC3CC(CC(C3)C1)C2,20,22
CCc1ccccc1NCN1C(=O)c2ccccc2C1=O,-2,-4
COc1ccc(-n2ccnc(SCc3ccc(F)cc3)c2=O)cc1OC,-1,-1
COC(=O)CCCCC(=O)Nc1ccc(-c2onc3c2CCc2ccccc2-3)cc1,2,-6
Cc1cc(C2(c3cc(C)c(O)c4ncccc34)OC(=O)c3ccccc32)c2cccnc2c1O,9,2
CCc1[nH]c2ccc(CNC(=O)Cc3ccc4c(c3)NC(=O)CO4)cc2c1C,0,-1
C=CCN(CC(=O)N1CCc2sccc2C1COc1cccc(OC)c1)C(=O)c1cccc(F)c1 (configuration not stated),2,16
COc1cccc(CN(Cc2ccc(C(O)(c3cccs3)c3cccs3)o2)CC2CCCO2)c1 (configuration not stated),-2,19
CC(C)NC(=O)c1ccc(OCc2cccs2)cc1,-1,-2
COc1ccc(N2C(=O)CSC2c2cccc(NC(=O)c3ccc(C(F)(F)F)cc3)c2)cc1 (configuration not stated),12,11
Cn1c(NCc2ccccc2COc2ccccc2)c(C#N)c(=O)n(C)c1=O,3,0
Cc1c(C)n2c3c(=O)n(Cc4ccccc4F)c(=O)n(C)c3nc2n1CCCO,-1,24
Cc1oc(-c2ccccc2NS(C)(=O)=O)nc1CN(C)Cc1cccs1,21,14
CN(C)c1ccc(C=Nc2ccc(F)cc2)cc1,6,8
COc1cc(OC)cc(-c2onc(C)c2C(=O)NCCCSC)c1,18,29
Cc1nonc1OCCNC(=O)CCN1CCCCCCC1,6,4

Next section
SMILES | NPYLR7 agonist | NPYLR7 agonist max-min
Cc1c(C)n2c3c(=O)n(C)c(=O)n(C)c3nc2n1Cc1ccccc1F | 4 | 3
Cc1cc2c(c(=O)o1)C(c1c(F)cccc1Cl)C(C#N)C(=N)O2 (configuration not stated) | -1 | -5
CCc1ccc(CC)c(NC(=O)NCc2ccc(S(C)=O)cc2)c1 (configuration not stated) | 0 | -1
O=c1ccc(-c2ccncc2)nn1CCNS(=O)(=O)c1ccc(F)cc1F | 11 | 2
COC(=O)N1CCC(=NNC(=O)NCC2CC2)CC1 | -1 | -3
CC1C(c2ccccc2)=[N+]([O-])C(C)(c2ccc(F)cc2)N1O (configuration not stated) | 10 | 1
Cc1cc(C)n(CC(=O)N=Nc2c(O)[nH]c3c(C)cccc23)n1 | 5 | 10
Cc1ccc(COc2cccc3ccc(N4CCC(C(N)=O)CC4)nc23)cc1 | 3 | 3
Cc1c(-c2ccc(Cl)cc2)[n+](=O)c2c(n1[O-])CCC2 | -3 | -3
O=C(c1ccc2c(c1)OCO2)N1CCN(c2nccc(-c3cccs3)n2)CC1 | 26 | 24
O=C(NCCCN1CCCCC1)c1ccc2c(=O)n(Cc3ccc(Cl)cc3)c(=S)[nH]c2c1 | 6 | 4
CC(=O)Nc1ccc(CN(C)c2c(C)nc3ccc(C(=O)NCc4ccc(N(C)C)cc4)cn23)cc1 | 11 | 2
Cc1nc2c(c(N(C)C)n1)CCN(S(=O)(=O)c1ccc(F)cc1C)C2 | 6 | 2
COc1ccccc1OCC(=O)Oc1coc(CSc2nccc(C)n2)cc1=O | -10 | -5
CCc1csc(CNC(=O)c2ncc[nH]2)n1 | -6 | -10
O=C(NC(C(=O)N1CCCCC1)C1CCN(C(=O)Cc2ccccc2)CC1)c1ccccc1Cl (configuration not stated) | 1 | 7
c1ccc(C2CN(c3ncnc4c3CCNC4)CCO2)cc1 (configuration not stated) | 1 | 0
O=C(c1ccc(CSc2nnc(-c3cccs3)n2-c2ccccc2F)cc1)N1CCOCC1 | 0 | 5
CCOc1ccc(Cc2nnc(SCC(=O)Nc3ccccc3C)[nH]c2=O)cc1 | -4 | -5
S=c1nn[nH]n1-c1cccc(Cl)c1 | 6 | 2
CC(C)c1ccccc1Oc1cc(C(F)(F)F)nc(SCc2cccc(F)c2)n1 | 1 | 13
CC1(C)C(=O)NC(=O)C(C#N)C1c1ccccc1 (configuration not stated) | -3 | -2
Cc1ccccc1CSC(C)C(=O)c1ccc(NS(C)(=O)=O)cc1 (configuration not stated) | 3 | 2
CC(=O)c1ccc(N2CCN(C(=O)c3csc(COC(=O)c4ccccc4)n3)CC2)cc1 | -4 | -10
O=C1CN(C(=O)c2ccc(-c3ccccc3)cc2F)CCN1 | 2 | -1
O=C(NCc1cccnc1-n1ccnc1)c1cc(-n2cccn2)ccc1Cl | -1 | -2
Cc1cc(CNCC2CCCCC2)c(C)n1-c1nccs1 | 12 | 9
O=S(=O)(Nc1nn(Cc2ccc(C(F)(F)F)cc2)c2ccccc12)c1ccc2ccccc2c1 | 21 | 22
CCN(CC(=O)NC(C)C)C(=O)C1CCCN(c2ncccc2C(F)(F)F)C1 (configuration not stated) | 5 | 4
COc1cccc(C=C2SC(N3CCCCC3)=NC2=O)c1OC | 2 | 0
O=C1NC(=O)N(c2ccccc2)C(=O)/C1=C\c1ccc(Br)o1 | 4 | 2
Cc1cc(N2CCNC(C)C2)nc(-c2ccccc2)n1 (configuration not stated) | -2 | -7
Cn1cc(/C=C/C(=O)N(Cc2ccsc2)C(C)(C)C)cn1 | 9 | 6
CCOc1cc(N)c(Cl)cc1C(=O)NCC1CN(Cc2ccc(F)cc2)CCO1 (configuration not stated) | -6 | -10
Cn1ncc2c(=O)[nH]c(CN3CCCC3c3ccc(O)cc3)nc21 (configuration not stated) | -1 | -7
CC(=O)C(C)(C)C(C#N)C(=O)O (configuration not stated) | -4 | -5
